HPGD block = inhibitors of human 15-hydroxyprostaglandin dehydrogenase (HPGD). P15428. purified HPGD, NADH fluorescence kinetic, PGE2 substrate. Potency, µM, for inactives: at the highest dose activity change, negative = inhibition, most hits filed as inhibitors. hit rate 4.3% among 150,000. AID 894; active = well fitted inhibition curve with a large enough effect (not every such curve was filed as active); inconclusive = small, poorly fitted or top-dose-only effect, or another doubt; inactive = no such curve, though single readings can be large or run the other way;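 also: top concentration of the series not given in the record; plate controls included wells without enzyme; inactives centre near -10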
Target sequence (P15428 whole entry, looked up): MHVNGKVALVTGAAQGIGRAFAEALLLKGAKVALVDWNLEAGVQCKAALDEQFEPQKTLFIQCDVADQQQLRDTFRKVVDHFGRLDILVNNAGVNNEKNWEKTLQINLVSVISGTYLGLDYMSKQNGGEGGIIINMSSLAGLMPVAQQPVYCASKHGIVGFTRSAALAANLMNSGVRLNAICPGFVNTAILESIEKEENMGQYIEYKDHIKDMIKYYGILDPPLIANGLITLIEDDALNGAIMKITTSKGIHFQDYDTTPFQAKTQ
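20 nM HPGD preincubated 15 min at room temperature with compound in 50 mM Tris-HCl pH 8, 0.01% Tween 20. Started with 1 mM NAD+ and 30 uM prostaglandin E2; NADH fluorescence (360/450 nm) read 5 times over 30-s intervals, last minus first.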
An asterisk follows results filed as active; ? = inconclusive; & = joins results of further samples. % is scaled to controls: 0 for no effect and ±100 for the full control effect; potency is read from the fitted curve at half-maximal effect.

SMILES	HPGD block
CC(Nc1cc(N2CCN(C(=O)C(C)(C)C)CC2)ccc1[N+](=O)[O-])c1ccccc1 (stereo unspecified)	-28.3%
COCC(C)n1c(C)cc(C(=O)CSc2cc(C)c3ccccc3n2)c1C (stereo unspecified)	-10.7%
Cc1cnc(NC(=O)CSc2ccccc2)s1	-5.3%
COC(=O)C(CC(=O)c1ccc(Cl)cc1)c1ccc(C(C)C)cc1 (stereo unspecified)	-10.9%
C#CCn1c(=NC(=O)CSCC(=O)N2CCOCC2)sc2ccccc21	-13.4%
CCNC(=O)COC(=O)c1cc(-c2ccc(OC)cc2)nc2ccccc12	?
CO[C@H]1[C@H](O[C@H]2O[C@@H](C)[C@@H](O[C@@H]3C[C@](C)(O)[C@H](OC(=O)CC(C)C)[C@H](C)O3)[C@@H](N(C)C)[C@@H]2O)[C@@H](CC=O)C[C@@H](C)[C@@H](O)/C=C\C=C/C[C@@H](C)OC(=O)C[C@H]1OC(C)=O	-5.0%
CCOC(=O)C1=C(C)NC2=C(C(=O)CCC2)C1c1cc(OC)ccc1OC (stereo unspecified)	-16.1%
Cc1ccc(OCC(=O)N/N=C/c2c[nH]c3ccccc23)c([N+](=O)[O-])c1	-9.9%
O=C(C[n+]1cc(-c2ccccc2)n2c1CCC2)OCc1ccccc1	-12.1%
CCNC(=O)CN(c1ccc(CC)cc1)S(C)(=O)=O	-9.6%
CC1=Nc2cc(C(=O)NCc3ccco3)ccc2Sc2ccc(C)cc21	-13.3%
CCCc1nnc(NC(=O)CCC(=O)N2CCN(c3ccccn3)CC2)s1	-12.1%
COc1ccc(CCNC(=O)CC2SC(=NCCC(C)C)NC2=O)cc1OC (stereo unspecified)	-2.3%
Cc1ccc(S(=O)(=O)Cn2nnnc2C(CC(C)C)N2CCN(C(=O)c3ccco3)CC2)cc1 (stereo unspecified)	1.6%
Cc1ccc(NC(=O)CSc2nn(-c3ccc(Cl)cc3)c(=S)s2)cc1S(=O)(=O)N(C)C	?
CCC(CC)=N/N=C/c1c(O)n(CC)c2cc(C3=NNC(=O)CC3)ccc12	?
CC(=O)c1cccc(N(CC(=O)Nc2ccc(F)cc2)S(C)(=O)=O)c1	-7.1%
Cc1nc(NC(=O)c2ccco2)sc1C(=O)Nc1ccc(Br)cc1	-11.9%
Cc1ccc(-c2csc(NC(=O)CCNC(=O)c3ccccc3Cl)n2)cc1	-29.3%
O=[N+]([O-])c1cccc(Cl)c1NCCNS(=O)(=O)c1ccccc1	-24.2%
Cc1ccc(C)c(NC(=O)CSc2nc(C)cc(C)c2C#N)c1	2.3%
COC(=O)c1ccccc1SC1CC(=O)N(c2cccc(C)c2)C1=O (stereo unspecified)	?
COc1ccccc1C(=O)N/C(=C\c1ccc(Br)cc1)C(=O)NCCO	-2.7%
CCN(CC)c1ccc(NC(=O)c2cnn(CC)c2)cc1	2.0%
Following part:
SMILES	HPGD block
O=S(=O)(NCCNS(=O)(=O)c1ccccc1)c1ccccc1	2.0%
CCN(CC)CCNC(=O)CCCCn1c(=S)[nH]c2c([nH]c3ccc(OC)cc32)c1=O	?
CCS(=O)(=O)N1CCC(C(=O)NCc2cccs2)CC1	2.5%
Cc1c(NS(=O)(=O)N2CCCC2)c(=O)n(-c2ccccc2)n1C	-0.1%
N#C/C(=C/c1ccc(Sc2nc3ccccc3[nH]2)o1)c1cccc(Br)c1	?
Cc1ccc(Cn2ccc(NC(=O)c3cc(-c4ccc5c(c4)OCO5)on3)n2)cc1	?
COC(=O)c1cccc(S(=O)(=O)N2CCC(c3nc4ccccc4o3)CC2)c1	-12.0%
COC(=O)c1ccc(C(NC(=O)OCc2ccccc2)/C(=C/[C@@H](C)C(=O)Nc2ccccc2)c2cccnc2)cc1 (stereo partly specified)	-5.4%
COc1ccc(/C=N/n2cnnc2SCc2ccccc2)cc1	-1.1%
CC1=C(C(=O)OCC(C)C)C(c2ccc(F)cc2)NC(=O)N1 (stereo unspecified)	-7.0%
CCCCOc1ccc(CN(CCO)CCO)cc1[N+](=O)[O-]	-3.9%
Cc1cc(C)nc(Sc2ncnc3c2oc2ccccc23)n1	-13.5%
C=C(C)CSc1nnc(-c2ccc(OC)cc2)n1N	?
CC(C)c1nnc(-c2ccc(Cl)cc2)c(N(C)C)n1	-12.8%
Cc1cc(OCC(=O)N2CCOCC2)cc2oc(=O)c3ccccc3c12	?
S=C1NCCc2ccccc2C1c1ccccc1 (stereo unspecified)	39.8µM*
CC(CNC(=O)COc1ccccc1)OC(=O)Nc1cccc(Cl)c1 (stereo unspecified)	-14.6%
O=C(O)CCS(=O)(=O)Cc1ccccc1Cl	-0.7%
O=C(c1cnccn1)N1CCC2(CC1)CCN(c1cccc(-c3ccccc3)c1)CC2	-8.4%
CCOC(=O)C(C)Sc1nc(-c2ccccc2)nc2ccc(F)cc12 (stereo unspecified)	?
Cc1cc(NC(=O)/C(C#N)=C/c2ccco2)n(-c2ccccc2)n1	-9.5%
O=C1C2C3C=CC(C3)C2C(=O)N1c1ncn[nH]1 (stereo unspecified)	-1.4%
OC(c1ccccc1)C1CN(Cc2ccccc2)CCC1(O)c1ccccc1 (stereo unspecified)	-13.9%
CN(CC(=O)NCCc1ccccc1)S(=O)(=O)c1ccc(Br)cc1	-14.2%
O=C(COc1ccc(Cl)cc1Cl)N1CCCCCC1	?
Following part.
SMILES	HPGD block
COc1ccc(CCNC(=O)c2ccc(CN3CCC(Cc4ccccc4)CC3)cc2)cc1	-5.8%
O=C1C2C3c4ccccc4C(c4ccccc43)C2C(=O)N1CN1CCOCC1 (stereo unspecified)	-6.7%
N#Cc1cc2c(nc1SCc1cccnc1)CCCCC2	?
Cc1sc2ncnc(Sc3nc4ccccc4s3)c2c1C	-10.4%
Cc1ccc(CCNC(=O)CN2C(=O)COc3ccccc32)cc1	-3.7%
O=C(N/N=C/c1ccc(Sc2ccccn2)o1)c1cccc([N+](=O)[O-])c1	-11.7%
Cc1cc(C(=O)CSc2nc3ccccc3c(=O)n2C)c(C)n1Cc1ccc2c(c1)OCO2	-23.5%
CC(=O)NS(=O)(=O)c1ccc(NC(=O)CCC2CCCC2)cc1	-2.2%
COC(=O)c1cc(-c2ccc3c(c2)OCO3)nc2ccccc12	?
O=C(Oc1ccc(N(Cc2cccs2)C2=NS(=O)(=O)c3ccccc32)cc1)c1ccc(Cl)cc1	-21.2%
CC(=O)c1c(C(C)=O)c(C)n(-c2nc(-c3ccc(Br)cc3)c(C)s2)c1C	-7.4%
CCCCNC(=O)Cn1cnc2sc(C(=O)OCC)c(C)c2c1=O	-5.5%
CCOC(=O)C(NC(=O)CCl)(Nc1sc(C)c(CC)c1C#N)C(F)(F)F (stereo unspecified)	-8.4%
Cc1c(C(=O)c2ccc(Cl)c([N+](=O)[O-])c2)c2ccccn2c1CCC#N	-17.2%
CCc1noc(C)c1C(=O)NCCc1ccc(OC)c(OC)c1	-5.7%
COc1cc2c(cc1OC)CN(c1nc(CN3CCOCC3)nc3sc4c(c13)CCC(C)C4)CC2 (stereo unspecified)	-15.5%
C=CCOC(=O)C1=C(C)NC(SCC(=O)Nc2nccs2)=C(C#N)C1c1cccs1 (stereo unspecified)	-16.7%
O=C(Nc1ncc(S(=O)(=O)c2ccc([N+](=O)[O-])cc2)s1)c1cccc2ccccc12	-13.3%
Clc1ccc(/C=C\c2nc(Cl)c(-c3ccc(Cl)cc3)c(Cl)n2)cc1	-9.4%
COc1ccc(C(=O)N2CCC3(CCN(Cc4ccc(C#N)cc4)CC3)CC2)cc1	-2.4%
CC(/C=C/c1cccc(Oc2ccc(F)cc2)c1)N(O)C(N)=O (stereo unspecified)	-10.7%
CCOC(=O)N1CCN(c2ncnc3c2[nH]c2ccc(OC)cc23)CC1	?
CCOC(=O)N/N=C(\C)c1ccc(Br)cc1	-1.3%
Oc1ccccc1CN1CCC(C(O)(c2ccccc2)c2ccccc2)CC1	7.8%
O=C(N/N=C/c1ccc2c(c1)OCO2)c1ccc(Br)o1	?

Shown with each value named: entries from further up
O=C(c1cnccn1)N1CCC2(CC1)CCN(c1cccc(-c3ccccc3)c1)CC2
  HPGD block = -8.4%
CCS(=O)(=O)N1CCC(C(=O)NCc2cccs2)CC1
  HPGD block = 2.5%
COc1ccc(/C=N/n2cnnc2SCc2ccccc2)cc1
  HPGD block = -1.1%
CCNC(=O)COC(=O)c1cc(-c2ccc(OC)cc2)nc2ccccc12
  HPGD block = ?

Continuation.
SMILES	HPGD block
CCOC(=O)c1ccc(NC(=O)c2ccc(NS(C)(=O)=O)cc2)cc1	-20.0%
O=C1c2ccccc2NC2(CCCC2)N1O	20µM*
COc1ccc([N+](=O)[O-])cc1NC(=O)CSCc1ccccc1C	-12.6%
COc1ccccc1Nc1cc(C)nc2c(C)ccc([N+](=O)[O-])c12	-3.8%
COc1cc(CNCc2ccccn2)ccc1OCc1ccc(Cl)cc1Cl	-7.2%
Cn1cnnc1SCC(=O)Nc1ccc(S(=O)(=O)N2CCCC2)cc1	-0.8%
CC(C)c1nnc(NC(=O)c2cccs2)s1	-2.0%
N/C(Cc1ccc(Cl)cc1Cl)=N\OC(=O)c1cccs1	-16.1%
Cc1ccc(S(=O)(=O)NCC(=O)OCC(=O)NC(=O)c2cccn2C)cc1	-6.3%
Cc1ccc(CNC(=O)C2CC(=O)N(c3ccc(OCC(=O)N4CCCC4)cc3)C2)cc1 (stereo unspecified)	-23.6%
C[C@@H]1NC(=O)c2cc([N+](=O)[O-])cc(I)c2NCCCC[C@@H](C(N)=O)NC(=O)[C@H](CC(N)=O)NC1=O	-12.1%
O=c1oc(/C=C/c2ccccc2)nc2sc3c(c12)CCC3	-5.7%
CCOC(=O)/C(C#N)=C\c1c(C)cc(C)c(COC(C)=O)c1C	1.4%
Cc1noc(C)c1COC(=O)C1COc2ccccc2O1 (stereo unspecified)	-5.2%
Cc1ccc(OCC(=O)Nc2cccc(-c3nnc(-c4ccccc4)o3)c2)cc1	-10.3%
Cc1nnc(SCc2cccc3ccccc23)n(N)c1=O	-16.1%
Cc1cccc(Oc2ccccc2N)c1	-14.2%
CN(C)c1ccc(NC(=O)c2ccncc2)c2ccccc12	-4.8%
CCc1cc2c(nc1CC)CCN(CC/C(C)=N/OC[C@H]1O[C@H](c3ccccc3)C=C[C@@H]1Oc1ccc(OC)cc1)C2	-18.5%
COc1ccc(NC(=O)NCCCN2CCCC2=O)c(OC)c1	-3.1%
COc1ccc(OCC(=O)N2CCN(C(=O)c3cccc(F)c3)CC2)cc1	0.5%
COc1ccc(C(=O)NNC(=O)c2ccccn2)cc1	?
CCCCOC(=O)Nc1ccc(N2CCOCC2)cc1	-1.3%
COc1cc(NC(=O)CCN2CCN(Cc3ccccc3)CC2)cc(OC)c1	-5.9%
Cc1ccc2nc(N(CCCN(C)C)C(=O)c3ccc4c(c3)CCCC4)sc2c1	-5.9%

Exported comma-delimited: five of the compounds above.
smiles,HPGD block
C=CCOC(=O)C1=C(C)NC(SCC(=O)Nc2nccs2)=C(C#N)C1c1cccs1 (stereo unspecified),-16.7%
O=C(Nc1ncc(S(=O)(=O)c2ccc([N+](=O)[O-])cc2)s1)c1cccc2ccccc12,-13.3%
Clc1ccc(/C=C\c2nc(Cl)c(-c3ccc(Cl)cc3)c(Cl)n2)cc1,-9.4%
COc1ccc(C(=O)N2CCC3(CCN(Cc4ccc(C#N)cc4)CC3)CC2)cc1,-2.4%
CC(/C=C/c1cccc(Oc2ccc(F)cc2)c1)N(O)C(N)=O (stereo unspecified),-10.7%

(cont.)
SMILES	HPGD block
COC(=O)c1cc(C#N)c(SCc2ccccc2)nc1C	-28.9%
COc1cccc(-c2cc(=O)c3cc(NC(=O)c4ccc(Cl)cc4)ccc3[nH]2)c1	-3.2%&-15.0%
CC(=O)OC1CC(OC(C)=O)[C@]2(C)C(CC(O)[C@]3(C)C2CC[C@@]2(C)C(c4ccoc4)OC(=O)C4O[C@]432)C1(C)C (stereo partly specified)	-1.2%
CCC(=O)c1cn(CC(=O)NCc2ccco2)c2ccccc12	-16.6%
CCCC(=O)Nc1ccc(C(=O)N2CCCC2)cc1	14.1µM*
O=C1C2C3c4ccccc4C(c4ccccc43)C2C(=O)N1Cc1cccnc1 (stereo unspecified)	-3.4%
COc1ccc(C=Nc2cccc3c(=O)[nH][nH]c(=O)c23)c2ccccc12	?
CC(=O)NC12CC3CC(CC(CC(=O)O)(C3)C1)C2	-4.2%
CCOC(=O)Cc1c(Sc2ccccc2)c2cc(C)ccc2n1C	-13.0%
Cc1nnc(SCC(=O)Nc2cccc(C(F)(F)F)c2)n1Cc1ccco1	?
Cc1cccnc1NC(=O)Nc1cccc(C(F)(F)F)c1	0.7%
O=C(COc1ccc(Cl)cc1)Nc1ccccc1N1CCOCC1	-7.6%
CCS(=O)(=O)N1CCN(c2ccccn2)CC1	-14.6%
COc1ccc(N2C(=O)C3CCCN3C2c2ccccc2F)cc1 (stereo unspecified)	-6.0%
c1cc2c(cc1-c1cnc3n1CCC3)OCCO2	?
CN(C)C(=O)COC(=O)c1ccccc1OCC(=O)Nc1ccc(SC(F)F)cc1	-9.1%
CC(C)OC(=O)C1C(=O)CC(C)(O)C(C(=O)OC(C)C)C1c1cccnc1 (stereo unspecified)	2.2%
COc1ccc(/C=N/OC/C(O)=C(\C#N)c2nc3ccccc3[nH]2)cc1OC	?
COc1ccc(Cl)cc1NC(=O)COC(=O)c1cc(NS(=O)(=O)c2cccs2)ccc1O	-9.3%
CCCN(Cc1cc2cc(OC)ccc2[nH]c1=O)C(=O)c1ccncc1	-28.7%
O=C(Nc1cn(-c2ccccc2)nc1-c1ccccc1)c1ccccc1	-2.0%

Screening data from PubChem.

This is a subset; the hit share may differ from the screen's.
